AmpC nodet inh: inhibitors of E. coli AmpC beta-lactamase without detergent. actives 1.8% (n = 71,000). AmpC nitrocefin hydrolysis, absorbance 480 nm, no detergent; potencies from a single point are estimates. Potency, µM (top dose mostly 28.7 µM), inactives show at the highest dose activity change, negative = inhibition. AID 585; active = falling curve, for most hits resting on a single point; inconclusive = weak or doubtful change; inactive = flat or rising curve; further: % of control where 0% means no effect; about half of the hits show no inhibition at the top dose; a quarter of the inactives give rising signals
Target sequence (P00811 whole entry, looked up): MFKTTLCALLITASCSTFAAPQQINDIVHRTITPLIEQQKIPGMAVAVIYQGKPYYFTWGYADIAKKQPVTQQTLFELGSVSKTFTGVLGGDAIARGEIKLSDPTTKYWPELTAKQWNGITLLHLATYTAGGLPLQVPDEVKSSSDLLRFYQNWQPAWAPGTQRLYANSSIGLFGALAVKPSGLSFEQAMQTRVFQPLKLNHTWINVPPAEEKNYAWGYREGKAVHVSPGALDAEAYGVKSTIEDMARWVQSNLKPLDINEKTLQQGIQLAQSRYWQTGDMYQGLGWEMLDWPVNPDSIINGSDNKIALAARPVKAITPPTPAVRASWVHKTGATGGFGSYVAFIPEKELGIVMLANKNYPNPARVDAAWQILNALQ
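AmpC, 20 mM phosphate pH 7.0; 15 min cpd preinc, RT; start with nitrocefin (800 uM stock); A480 kinetic read, 20 s intervals, 4 min. No-enzyme wells = negative control.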
* hit, by the source's call; ? = inconclusive; & = joins results of further samples; [ ] = dose if it differs, or a comment. Potency means the concentration at half of the fitted maximal effect.

compound	AmpC nodet inh
O=S(=O)(c1ccccc1Cl)N1CCC(O)(c2ccc3c(c2)OCO3)CC1	15.6%
Cc1nnc(SCCN2CCOCC2)n1C	-7.7%
C=CCNC(=O)NC(=O)COC(=O)COc1ccc(Br)cc1F	8.6%
CCN(CCCNC(=O)CN1C(=O)COc2ccccc21)c1cccc(C)c1	37.6%
CC1CCN(C(=O)Cn2cc3c(n2)CCCC3)CC1	6.5%
CC(=O)/C(C(=N)N1CCN(Cc2ccccc2)CC1)=C(\C)O	1.3%
COc1cc(C2c3c(n[nH]c3C)C(=O)N2c2ccc(Br)cc2)ccc1O (stereo not drawn)	1.8%
Cc1ccc(C)c2[nH]c(=O)c(CCNC(=O)c3cc4ccccc4o3)cc12	31.5%
COc1ccccc1OCC(O)Cn1c(Br)nc2c1c(=O)[nH]c(=O)n2C (stereo not drawn)	-2.8%
c1ccc2c(c1)CNc1ccccc1C2	4.6%
O=C(NC(=Nc1ccccc1)N1CCOCC1)Nc1ccccc1	-4.0%
COc1ccc(-n2c(-c3ccco3)n[nH]c2=S)cc1	-2.6%
COc1ccc2c(c1)S/C(=C\C(=O)c1ccncc1)N2C	29.4%
CCC(c1nnnn1Cc1ccccc1)N(Cc1cc2cc(OC)ccc2[nH]c1=O)CC1CCCO1 (stereo not drawn)	80.2%
COc1ccccc1N1CCN(CCCCN2C(=O)CCC2=O)CC1	30.4%
Cc1cc(NC(=O)CCC(=O)N(CC2CCCO2)C(C(=O)NC2CCCC2)c2ccccc2C)no1 (stereo not drawn)	49.5%
COC(=O)c1ccccc1NC(=O)CSc1nc(NC(=O)c2ccccc2)c2c(C)c(C)oc2n1	0.3%
O=C(O)C(Cc1ccccc1)Cc1ccccc1	2.5%[5.75 µM]
COCCn1c(=O)c(-c2cn(C)c3ccccc23)nc2cnc(Oc3ccccc3)nc21	11.1%
CCOc1cc(OCC)c(C(C)=O)cc1OCC	15.4%
Cc1ccc(NC(=O)COc2ccc(/C(N)=N/O)cc2)cc1C	-12.6%
Cc1cc(=O)oc2cc(OCC(=O)OCc3nnc(-c4ccccc4)o3)ccc12	20.7%
COC(=O)[C@@]1(Cc2ccc(OC)cc2)[C@H]2c3cc(C(=O)N4CCCC4)n(Cc4ccc(C(F)(F)F)nc4)c3C[C@H]2CN1C(=O)c1ccccc1	156.7%
O=C(CSc1ncn[nH]1)c1ccccc1	-23.0%
Cn1nc(C(=O)Nc2c(-c3ccccc3)nc3sccn23)c2ccccc2c1=O	29.9%
Cn1nnc(NC(=O)c2cccc(OCc3ccccc3)c2)n1	7.1%
O=C(CCn1c(=S)[nH]c2cc3c(cc2c1=O)OCO3)N1CCN(c2ccccn2)CC1	1.2%
O=C1C2CC=CCC2C(=O)N1c1nc2n(n1)C(c1ccccc1)CC(c1ccccc1)N2 (stereo not drawn)	83.3%
Cc1sc2nc(SCC(=O)N3CCOCC3)[nH]c(=O)c2c1C	8.3%
Cc1cc2ncn(-c3nnnn3-c3ccccc3)c2cc1C	22.0%
C=CCn1c(SCC(=O)Nc2cccc(OC)c2)nnc1-c1cccnc1	21.6%
O=C(/C(=N/O)c1ccccc1)c1ccccc1	-10.9%
CSc1ccc(S(=O)(=O)N2CCCC2)cc1	-1.8%
Cc1cc(C)nc(N2CCC(C(=O)NC3CCCCCC3)CC2)n1	34.5%
O=C(NC1CCCCC1)C(c1ccccc1F)N(Cc1ccco1)C(=O)Cn1nnc2ccccc21 (stereo not drawn)	22.8%
COC(=O)c1cc(NC(=O)CSc2nnc(CN3CCOCC3)n2C)ccc1Cl	68.4%
COC(=O)c1cc2ccsc2n1Cc1cc(=O)n2ccccc2n1	49.8%
COc1ccc(S(=O)(=O)NC(CC(=O)NCCc2ccc(OC)c(OC)c2)c2ccco2)cc1 (stereo not drawn)	28.3%
CCOC(=O)c1ccc(NC(=O)CSc2nc(SC)ns2)cc1	-10.6%
Fc1ccc2nc(Nc3nc4c(s3)CCCC4)sc2c1	-20.6%
CCn1c(-c2ccccc2O)n[nH]c1=S	-8.1%
O=C(O)/C=C\C=C/c1ccc2c(c1)OCO2	-1.8%[5.75 µM]
COc1ccc(-c2nnc(SC3CCOC3=O)n2C2CCCCC2)cc1OC (stereo not drawn)	73.9%
C=CCN1C(=O)C2(C(C(=O)OCC)=C(N)Oc3c2c(=O)oc2ccccc32)c2ccccc21 (stereo not drawn)	54.0%
COc1ccc(NC(=O)C2CCCN2C(=O)NCc2ccccc2)c(OC)c1 (stereo not drawn)	2.1%
CCc1ccc(S(=O)(=O)NCc2csc(-c3cccnc3)n2)s1	-7.3%
CCOc1ccc(-n2c(=O)c3c4c(sc3n(CC(=O)NCc3ccco3)c2=O)CCC4)cc1	-5.7%
CC(C)(C)C(=O)Nc1ccccc1N1CCN(C(=O)c2ccc(Cl)cc2)CC1	83.5%
Cc1ccc(CNC(=O)Nc2ccccc2)cc1	-9.2%
CCOc1ccc2c(C)c(C(=O)O)oc2c1OCC	1.1%
CC(=O)N[C@H](c1ccccc1)[C@@]1(C)C[C@@H]1[C@@H](C)C(=O)Nc1ccc2ccccc2c1	89.6%
O=C(CSc1nnc(-c2ccc(OC(F)F)cc2)o1)NC(=O)NCc1ccco1	?
COC(C)(C)[C@]12CC(O)(C(C)C)ON1[C@H]1CCCCC1N2O (stereo partly drawn)	0.1%
O=C1CC(c2ccccc2)n2ncnc2N1 (stereo not drawn)	0.0%
Cc1cc(NS(=O)(=O)c2ccc(NC(=O)COc3ccc(Cl)cc3)cc2)no1	-13.6%
O=C(CN(C1CCCCC1)S(=O)(=O)c1ccc(Cl)cc1)NCCCO	47.6%
Cc1c(NC2=C(Cl)C(=O)N(c3ccccc3)C2=O)c(=O)n(-c2ccccc2)n1C	17.8%
CCn1cc(S(=O)(=O)CC(=O)Nc2ccc3c(c2)OCCO3)c2ccccc21	-16.9%
CCC(C)N1CC23C=CC(O2)C(C(=O)OC)C3C1=O (stereo not drawn)	3.98µM*[single pt active]
COc1ccc(NC(=O)CSc2nnc(COc3ccccc3)n2Cc2ccco2)cc1OC	78.1%

Further results follow.
compound	AmpC nodet inh
CC(C)COc1ccc(C(=O)CCN2CCCCC2)cc1	11.7%
CCCCn1c(NCCC)nc2c1c(=O)[nH]c(=O)n2C	0.1%
CCCCC(OC(=O)c1cc2occc2n1C)C(=O)NCC1CCCO1 (stereo not drawn)	89.9%
COc1cc2nc(NC(=O)c3ccc(Cl)cc3)[nH]c(=O)c2cc1OC	29.6%
Cc1cc(C)cc(N2CCCn3c2nc2c3c(=O)n(CCN3CCOCC3)c(=O)n2C)c1	126.6%
O=C(Nc1ccc(Cl)c(Cl)c1)N1CCC(N2CCCCC2)CC1	0.0%
CCOC(=O)c1cnc(SCC(=O)NCc2ccco2)nc1N	3.1%
CCCS(=O)(=O)N1CCCC(C(=O)N2CCC3(CC2)OCCO3)C1 (stereo not drawn)	-8.8%
O=C(NCCN1CCOCC1)c1cc2ccccc2[nH]1	-3.2%
Cc1ccc(Cl)cc1N1CCN(C(=O)CCS(=O)(=O)c2cccc3nonc23)CC1	48.2%
COCCNC(=O)CN(C(=O)CCC(=O)Nc1cc(C)on1)c1cccc(C)c1C	28.4%
CCCCn1c(SCC(=O)Nc2ccc(OC)cc2)nc2ccc(N3CCOCC3)cc2c1=O	97.0%
CCOc1ccc(NC(=O)CCN2CCCCC2)cc1	-1.3%
CC12CN3CCN(CC(C3)C1(O)CN1CCCCC1)C2 (stereo not drawn)	-2.2%
CN(C)Cc1ccccc1-c1nccc(NC2CC2)n1	-3.9%
O=C(Nc1cccc2ccccc12)c1cnccn1	-3.1%
CC(=O)N1CN(Cc2ccccn2)Cc2c1sc1c2CCCC1	22.7%
CCc1cc2c(=O)n(N)c(CCC(=O)O)nc2s1	1.4%
COc1ccc(-n2c(C)nc3c(cnn3-c3ccccc3)c2=O)cc1	33.3%
CCNc1ncc2nc(-c3ccc(OC)cc3)c(=O)n(Cc3cccs3)c2n1	16.9%
OC[C@@H]1O[C@@H](n2cnc3c(SCc4ccccc4)ncnc32)[C@@H](O)[C@H]1O	12.0%[5.75 µM]
Cn1c(SCC(=O)c2ccccc2F)nnc1C1CC1	-8.4%
CCC1=NC(c2ccc(OC)cc2OC)N(O)C1(C)C (stereo not drawn)	5.9%
COc1ccc(OC)c(NC(=O)Nc2nnc(N3CCC(C)CC3)s2)c1	3.98µM*[single pt active]
COc1ccc(Nc2nc3c(c(=O)n(C)c(=O)n3C)n2CCO)cc1	-0.2%
CC(=NC1CCN(Cc2ccccc2)CC1)c1c(O)[nH]c(=O)[nH]c1=O	-16.2%
O=C(NCc1cccs1)c1cccc(S(=O)(=O)N2CCCCC2)c1	-9.9%
CC(=O)N1CCc2cc(S(=O)(=O)CCC(=O)Nc3c(C)n(C)n(-c4ccccc4)c3=O)ccc21	11.5%
Nc1ccc(S(=O)(=O)Nc2ccc(S(N)(=O)=O)cc2)cc1	-3.2%
COC(=O)c1ccc(C(NC(=O)OCc2ccccc2)/C(F)=C/[C@@H](C)C(=O)NCc2cccnc2)cc1 (stereo partly drawn)	127.0%

Another view of part of the listing above:
COc1cc2nc(NC(=O)c3ccc(Cl)cc3)[nH]c(=O)c2cc1OC
  AmpC nodet inh: 29.6%

CCCS(=O)(=O)N1CCCC(C(=O)N2CCC3(CC2)OCCO3)C1 (stereo not drawn)
  AmpC nodet inh: -8.8%

Additional structures.
structure	AmpC nodet inh
COc1ccccc1S(=O)(=O)Cc1ccc(C(=O)NCc2cccs2)o1	-2.5%
CCOC(=O)c1cc(NC(=O)C2CCCO2)cc(C(=O)OCC)c1 (stereo not drawn)	26.7%
CN1CCCC(OC(=O)CCCC(=O)OC2CCCN(C)C2)C1 (stereo not drawn)	-4.7%
CCCNC(=O)NC(=O)CN1C(=O)NC(C)(c2ccc(C)cc2)C1=O (stereo not drawn)	24.2%
CCCOc1ccc(C2c3c(oc4cc(C)c(C)cc4c3=O)C(=O)N2CCCN(C)C)cc1OCC (stereo not drawn)	140.5%
O=C(COc1ccc(Cl)cc1)Nc1ccccc1C(=O)NCc1ccco1	-22.2%
COC(=O)C1CCN(C(=O)c2ccc(Cl)c(S(=O)(=O)NCc3cccnc3)c2)CC1	2.1%
C=CCn1c(SCC(=O)Nc2nc(C)cs2)nnc1C(CO)NC(=O)c1ccccc1 (stereo not drawn)	45.2%

Copied from the list.
For AmpC nodet inh, COC(=O)C1CCN(C(=O)c2ccc(Cl)c(S(=O)(=O)NCc3cccnc3)c2)CC1 has 2.1%
For AmpC nodet inh, COc1ccccc1S(=O)(=O)Cc1ccc(C(=O)NCc2cccs2)o1 has -2.5%
For AmpC nodet inh, CN1CCCC(OC(=O)CCCC(=O)OC2CCCN(C)C2)C1 (stereo not drawn) has -4.7%

(listing goes on)
structure	AmpC nodet inh
CC(C)C(C(=O)Nc1ccc2c(c1)OCO2)N1C(=O)c2ccccc2C1=O (stereo not drawn)	14.6%
COc1ccc(Cl)cc1NC(=O)CN1CCC(n2nnc3cc(C)ccc32)CC1	83.0%
CC1CCCCN1CC(=O)Nc1sc2c(c1C#N)CCC2 (stereo not drawn)	2.8%
Cc1c(NC(=O)C2CCCN2S(=O)(=O)c2ccccc2)c(=O)n(-c2ccccc2)n1C (stereo not drawn)	19.8%
Cn1c(=O)c2c(SCC(=O)c3ccccc3)nc(C3CC3)nc2n(C)c1=O	-4.0%
O=C(Nc1ccccc1C(=O)NC(Cc1c[nH]c2ccccc12)C(=O)O)c1ccco1 (stereo not drawn)	-4.1%
NC(=S)Nc1ccccc1	-6.3%&-3.3%
COc1nc2ccc(C)cc2cc1-c1noc(-c2cccnc2)n1	126.9%
Cc1cc(C)n(-c2nnc(C)c(=O)[nH]2)n1	-3.1%
COCCn1c(C(=O)N2CCCC2)cc2c1C[C@H]1CN(C(=O)c3ccccc3)[C@@](Cc3ccccc3)(C(=O)OC)[C@@H]21	156.4%
COc1ccccc1CNc1ncncc1-c1ccc(C(=O)N(C)C)cc1	14.2%
Cc1ccc(S(=O)(=O)N(C)c2ccc(NS(C)(=O)=O)cc2)cc1	1.6%
CSCC[C@H](NC(=O)NCc1ccc(F)cc1)C(=O)O	1.5%
CC(C)(C)c1ccc(C(=O)NCCC(=O)NCc2ccco2)cc1	21.7%
CS(=O)(=O)N(CC(=O)N1CCCCC1)c1ccc2c(c1)OCO2	-4.3%
Cc1nnc(C)c2c(C)n(C(C)c3ccccc3)c(C)c12 (stereo not drawn)	46.0%

Ordered by formula weight (high to low): some entries from above
structure	AmpC nodet inh
COCCn1c(C(=O)N2CCCC2)cc2c1C[C@H]1CN(C(=O)c3ccccc3)[C@@](Cc3ccccc3)(C(=O)OC)[C@@H]21	156.4%
Cc1ccc(S(=O)(=O)N(C)c2ccc(NS(C)(=O)=O)cc2)cc1	1.6%
CSCC[C@H](NC(=O)NCc1ccc(F)cc1)C(=O)O	1.5%

New compounds follow.
structure	AmpC nodet inh
Cc1ccc(S(=O)(=O)N2CCN(C(=O)C3CCCCC3)CC2)cc1	35.9%
CC(CN1CCOCC1)OC(=O)c1ccc(Br)cc1 (stereo not drawn)	-0.9%
N#Cc1nc(N)nc(N(c2ccccc2)c2ccccc2)n1	-14.7%
O=C1c2ccccc2-c2c1cccc2C(=O)N(CCO)CCO	1.0%
CC(=O)Nc1cccc(NS(=O)(=O)c2cccc3nsnc23)c1	-6.4%
c1ccc(Cn2c(-c3ccco3)nc3nc4ccccc4nc32)cc1	66.1%
COc1ccc(CCNC(=O)Cn2nnc(-c3cccs3)n2)cc1OC	12.7%
CC1(C)CC(=O)C=C(NCCN2CCN(C(=O)Cc3ccc(Cl)cc3)CC2)C1	48.3%
CC(C)(C)N(Cc1ccccc1)C(=O)c1ccc2c(c1)OCCO2	30.8%
C=CCN(C(=O)CSc1nc2[nH]ncc2c(=O)n1-c1ccccc1OC)c1ccccc1	70.1%
O=C(O)c1ccc(Cl)c(S(=O)(=O)NCc2ccco2)c1	-1.2%
CCOC(=O)C1CCN(C(=O)c2ccc(SC)cc2OC)CC1	32.1%
Cc1cc(OC(=O)N2CCOCC2)cc(C)c1Cl	39.6%
Cn1c(SCC(=O)Nc2ccccc2F)nnc1-c1ccc(S(=O)(=O)N2CCOCC2)cc1	55.6%

From PubChem BioAssay

An excerpt. The share of hits here may be higher or lower than overall.
